Beta2AR agonist: beta2AR agonists driving receptor internalization, primary screen, cell-based, FAP fluorogen, flow cytometry; Beta-2 adrenergic receptor (Homo sapiens), P07550; Am2.2-beta2AR cells; reference of the scale not given here; response, % (no concentration beside the values); 340,000 tested, 0.43% active;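 active means response above a set limit, near 3 SD of response in nonfluorescent compounds, cut at about 42% in these data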;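 further: stock transfer was 100 nL into about 11 µL; a reference agonist was the positive control; negative values mostly stem from fluorescent compounds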
Target sequence (P07550 whole entry, looked up): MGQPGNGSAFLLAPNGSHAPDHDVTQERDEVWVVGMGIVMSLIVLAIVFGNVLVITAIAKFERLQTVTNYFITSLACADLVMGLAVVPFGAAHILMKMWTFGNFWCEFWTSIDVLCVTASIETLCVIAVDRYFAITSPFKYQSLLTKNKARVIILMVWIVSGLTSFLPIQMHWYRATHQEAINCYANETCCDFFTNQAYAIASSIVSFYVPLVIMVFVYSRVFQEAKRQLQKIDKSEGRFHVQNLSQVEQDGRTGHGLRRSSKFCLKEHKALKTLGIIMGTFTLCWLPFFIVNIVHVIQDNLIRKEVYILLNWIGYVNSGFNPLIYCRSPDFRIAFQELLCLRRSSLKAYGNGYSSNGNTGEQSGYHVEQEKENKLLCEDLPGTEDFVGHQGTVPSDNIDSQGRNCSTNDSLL
Vif TR-FRET: inhibitors of Vif binding to APOBEC3G peptide, primary screen, biochemical, TR-FRET, GST-Vif 1-94, biotin-A3G peptide, dose response retest (AID 1117319); Virion infectivity factor (Human immunodeficiency virus type 1 group M subtype B (isolate …; TR-FRET GST-Vif / biotin-A3G peptide binding; higher % means a stronger effect; test concentration not given here; strong numbers were not always called active; inhibition, %; hits with a dose series show IC50 in µM; 260,000 tested, 0.57% active;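 active means above the screen mean plus three standard deviations and confirmed in dose response; inconclusive means results disagree or hit not tested in dose response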;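 further: Vif residues 1-94 fused to GST binding biotinylated APOBEC3G peptide 110-148; 0% = full assay without inhibitor and 100% = GST in place of GST-Vif; retest series ran down from 100 µM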
RanGTP-Impb inh: inhibitors of RanGTP-importin-beta interaction, primary screen, biochemical, FRET, CFP-Ran, YFP-importin-beta, homogeneous; cell-free CFP-Ran/YFP-importin-beta FRET ratio; inhibition, % (concentration not given with the values); 300,000 tested, 1.1% active;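 active means most replicates above 15%; inconclusive means exactly half above 15%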;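 further: 0% = DMSO wells and 100% = Ran loaded with GDP instead of GTP; wells of about 40 µL received 100 nL stock; the first replicate is given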
Calb FLC: C. albicans growth inhibition with fluconazole, primary screen, CaCi-2 strain, Alamar Blue fluorescence | 300,000 tested, 0.57% active | growth inhibition, % (no concentration beside the values) | C. albicans CaCi-2 (fluconazole-resistant clinical isolate) + fluconazole, 48 h;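 active means most replicates above 75%; inconclusive means exactly half above 75%; inactive means most below 75%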;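 further: all wells also contain fluconazole at 8 µg/ml as a sub-toxic cotreatment; 0% = median of DMSO wells and 100% = median of geldanamycin control wells; wells of about 8 µL received 7.5 nL stock; the first replicate is given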
LANA-H2B inh: blockers of LANA interaction with H2A/H2B – biochemical, FP readout, HTS, primary screen. Protein LANA1 (Human herpesvirus 8 type P (isolate GK18)), Q9QR71. cell-free LANA-H2A/H2B peptide, fluorescence polarization. inhibition, % (no concentration beside the values). 320,000 tested, 0.6% active. AID 2629, 2010; in the data active means inhibition mostly above about 10%, no sharp cut-off; inactive means mostly below about 6.7%;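 further: stock transfer was 7.5 nL into about 10 µL; 0% = median of vehicle wells and 100% = median of positive control wells; one replicate is shown; the record names a cut of 25% in any replicate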
ALR H2O2 inh: inhibitors of human ALR sulfhydryl oxidase, primary screen, biochemical, H2O2 detection, HRP-luminol luminescence, single point; FAD-linked sulfhydryl oxidase ALR (Homo sapiens), P55789; purified ALR, DTT oxidation; inhibition, % (concentration not given with the values); 290,000 tested, 3.8% active; AID 485317, 2010;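 active means mean and each replicate at 75% or more; inconclusive means only one of the two met; inactive means neither met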;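 further: stock transfer was 7.5 nL into about 7.5 µL; 0% = neutral wells and 100% = wells with inactivated enzyme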
Target sequence (P55789 whole entry, looked up): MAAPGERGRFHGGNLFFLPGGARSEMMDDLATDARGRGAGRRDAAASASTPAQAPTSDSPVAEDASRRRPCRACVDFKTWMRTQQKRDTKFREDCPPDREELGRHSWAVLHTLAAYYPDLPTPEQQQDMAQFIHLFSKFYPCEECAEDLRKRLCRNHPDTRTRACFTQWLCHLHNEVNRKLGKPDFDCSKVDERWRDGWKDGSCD
HNF4A DNA FP: change in binding of human HNF4A to DNA, primary screen, biochemical, fluorescence polarization, FITC-DNA; 360,000 tested, 0.3% active; 1 h; activity change, % at 10 µM; Hepatocyte nuclear factor 4-alpha (Homo sapiens), P41235; AID 1224865, 2016; in the data active means activity change above about 30%, passing the limit was not always enough;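 further: controls were the assay level and a saturating level of protein; the project sought stronger binding though the title names inhibitors; some compounds called inactive have numbers as strong as hits; positive values seem to mean higher polarization but the record does not say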
Target sequence (P41235 whole entry, looked up): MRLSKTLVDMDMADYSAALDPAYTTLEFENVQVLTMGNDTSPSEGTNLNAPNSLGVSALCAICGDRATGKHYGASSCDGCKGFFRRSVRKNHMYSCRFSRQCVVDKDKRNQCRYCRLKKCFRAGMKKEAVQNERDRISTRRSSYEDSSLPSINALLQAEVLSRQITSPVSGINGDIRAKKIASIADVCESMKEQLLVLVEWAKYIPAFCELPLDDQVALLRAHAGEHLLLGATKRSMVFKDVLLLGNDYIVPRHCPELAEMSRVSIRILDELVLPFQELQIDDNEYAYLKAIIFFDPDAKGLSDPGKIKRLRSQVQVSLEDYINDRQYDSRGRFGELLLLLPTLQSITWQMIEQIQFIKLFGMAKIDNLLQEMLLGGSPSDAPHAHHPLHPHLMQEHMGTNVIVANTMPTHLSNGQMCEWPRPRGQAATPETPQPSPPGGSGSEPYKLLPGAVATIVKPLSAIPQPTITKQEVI
The depositor's hits bear a star; ? = inconclusive; · = not tested or not shown; & = joins results of further samples. No enrichment for hits (roughly 6.3% active in at least one column).

SMILES	Beta2AR agonist	Vif TR-FRET	RanGTP-Impb inh	Calb FLC	LANA-H2B inh	ALR H2O2 inh	HNF4A DNA FP
Cc1cc(S(=O)(=O)N2CCCCC2CCNC(=O)C(=O)NCC2CCCO2)ccc1F (centres undefined)	-3	·	4.2	-1	-7.0	-4	-2.8
CN(CC(=O)Nc1ccccc1C(F)(F)F)C(=O)c1ccccc1Sc1ccccc1C#N	3	-11%	·	·	0.6	-1	1.2
CCOC(=O)N1CCN(c2ncnc3c2cnn3-c2ccc(OC)cc2)CC1	-9	·	-2.7	9	·	·	-0.6
O=C(c1cc2cccc([N+](=O)[O-])c2oc1=O)N1CCOCC1	1	-5%	-1.1	-2	-0.1	0	1.5
CC(CCc1ccccc1)NC(=O)C1CCN(S(=O)(=O)c2ccc(F)cc2)CC1 (centres undefined)	2	·	3.3	-8	-2.7	-5	2.9
COc1ccc(CN2C(=O)CN=C2Nc2cc(C)ccc2C)cc1	3	11%	7.5	1	-12	2	0.0
Cc1nnc2n(-c3ccccc3)c(=O)c3c4c(sc3n12)CC(C)CC4 (centres undefined)	-13	13%	0.3	27	0.3	-3	2.4
O=C(Cc1ccc(F)cc1)Nc1c2c(nn1-c1cccc(Cl)c1)CS(=O)C2 (centres undefined)	-7	26%	1.6	7	4.1	-2	-1.3
CC(C)n1cnnc1SCC(=O)Nc1cccc(S(=O)(=O)N(C)c2ccccc2)c1	0	-3%	1.8	0	1.9	-1	-0.8
Fc1ccccc1N1CCN(Cc2nc(-c3ccc(Cl)cc3Cl)no2)CC1	-1	26%	·	·	4.2	0	0.2
O=C(NNC(=O)C12CC3CC(CC(C3)C1)C2)c1ccccc1F	6	-2%	3.7	5	-1.7	-8	-0.1
C=CCn1c(O)c(C(CC)=Nc2ccccc2NC(=O)CC)c(=O)[nH]c1=O	2	31%	-0.8	1	2.6	-29	2.7
CCOc1ccc(-n2c(CCc3ccccc3)n[nH]c2=S)cc1	-11	-1%	-3.5	11	-4.5	·	-2.7
CC(=O)NNc1[nH]c2c(c(=O)c1[N+](=O)[O-])c(=O)n(C)c(=O)n2C	-1	0%	2.9	-5	2.1	11	2.9
CCOc1ccc(N2C(=O)C3C4C=CC([C@H]5CC45)[C@@H]3C2=O)cc1 (some centres undefined)	-4	-3%	-0.9	-8	-1.2	-14	1.2
Cc1ccc(NC(=O)CN(C)C(=O)CSc2nc3ccccc3c(=O)n2Cc2ccco2)cc1	-8	-1%&23%	5.3	2	2.1	-2	0.1
O=C(O)CC/C(=N/NC(=O)CNC(=O)c1ccc2c(c1)OCCO2)c1ccccc1	-23	·	3.7	-8	-2.7	0	0.2
O=C(CCCN1C(=O)/C(=C\c2cccs2)SC1=S)NNC(=O)c1ccncc1	1	4%	-3.0	-1	0.9	4	6.8
Cc1oc2c(CN(C)C)c(O)ccc2c(=O)c1-c1cscn1	23	22%	?	5	-2.1	-7	2.0
O=C(NN1C(=O)C2C(C1=O)C1C=CC2C12CC2)c1ccncc1 (centres undefined)	6	-4%	0.8	6	1.1	-8	-0.3
COc1cc(C(=O)O/N=C2\C=CC(=O)C=C2C)cc(OC)c1OC	-1	·	·	·	-1.9	13	1.6
Cc1ccc(S(=O)(=O)NNC2=NCCCCC2)cc1	10	12%	-0.6	-2	-1.4	14	-0.9
COc1ccc(C(=O)c2sc3nc(-c4ccc(OC)cc4)ccc3c2N)cc1	-36	-8%	23*	2	-2.9	4	16
COC(CNC(=O)CSCc1nc(-c2ccc(SC)cc2)oc1C)OC	-7	-4%	?	-2	-0.5	99*	-1.9
Cc1ccc2c(Cl)c(C)c(N3CCCCC3)nc2n1	-19	-3%	3.7	20	2.0	8	-0.1
CCOC(=O)CC(=O)Nc1ccc(Br)cc1C(=O)O	-3	0%	-1.2	2	3.5	1	-2.3
COc1ccccc1CC(=O)Nc1ccc2c(c1)OC1(CCCC1)O2	-3	2%	·	·	1.0	-16	3.7
CNC(=S)NNC(=O)c1oc2nc(-c3ccccc3)cc(C)c2c1N	1	0%	-1.3	-6	0.2	·	1.3
Nc1nc2ncc(C(=O)c3cc(F)ccc3O)cc2s1	7	3%	8.7	-7	-4.4	-3	6.8
COc1ccccc1/C=C1\SC(=S)N(CCC(=O)N2CCCCC2CCO)C1=O (centres undefined)	-6	·	0.9	1	-0.7	0	6.6
Cc1ccc(N2CC(C(=O)Nc3ccc4c(c3)OCO4)CC2=O)cc1 (centres undefined)	-4	6%	-3.6	1	-2.0	-34	0.9
Cc1ccc(-n2c(SC3CCOC3=O)nc3ccccc3c2=O)cc1 (centres undefined)	·	·	1.5	11	-0.8	-3	·
CCC(C)NC(=O)CSc1nnc(-c2ccc(OC)c(OC)c2)c(-c2ccc(OC)c(OC)c2)n1 (centres undefined)	-2	-104%	-1.8	4	0.8	0	1.5
CCOCCCNS(=O)(=O)c1ccc2c(c1)oc(=O)n2CC(=O)OCC	12	-1%	-1.6	3	3.3	4	0.5
S=C(NCc1cccs1)Nc1cccc(Cl)c1	1	7%	?	-15	-2.2	23	2.1
CN(CCO)c1ccc(C(C(=O)c2ccccc2)c2ccc(N(C)CCO)cc2)cc1	3	·	-8.3	-1	4.2	91*	0.8
COc1ccccc1NC(=O)N1CCN(c2ccnc3cc(Cl)ccc23)CC1	0	27%	3.0	20	-2.3	-24	-1.3
O=C(c1cccc(F)c1)N1CCC(c2nc3ccccc3s2)CC1	3	·	7.1	3	-5.6	100*	2.5
CCOC(=O)c1[nH]c(CO)c(C(=O)OCC)c1C	2	-2%	-0.2	3	0.3	1	0.2
Fc1ccc2cnc(-c3cccnc3)cc2c1	-5	·	·	·	3.2	-20	3.3
Cc1cn([C@H]2C[C@H](O)[C@@H](CCC(=O)NCCc3cnc[nH]3)O2)c(=O)[nH]c1=O	-2	1%	·	·	·	·	3.1
Nc1nc2ccc(S(=O)(=O)N3CCCCC3)cc2s1	7	3%	-4.6	-8	-0.9	98*	-2.7
CCc1ccc(N(CC(=O)Nc2ccccc2C(=O)N2CCCC2)S(C)(=O)=O)cc1	8	-3%	6.2	-1	-9.3	-3	2.1
CC(C)n1c(COc2ccccc2)nc2ccccc21	-10	-1%	-0.9	-8	-0.6	14	-1.1
Cc1cc(C(=O)Nc2nnc(C(F)(F)F)s2)no1	10	-4%	-1.3	-4	-1.5	4	0.4
O=[N+]([O-])/C(C(=C(Cl)Cl)N1CCN(Cc2ccccc2)CC1)=C1\NCCN1Cc1ccc(Cl)nc1	1	·	8.2	18	5.0	3	-2.8
CCCCn1nc(C(=O)Nc2ccccc2N2CCCC2)c2ccccc2c1=O	13	27%	·	·	-6.1	1	0.2
CCOc1ccc(N2C(=O)CC(NC3CCN(C(=O)c4ccc(F)cc4)CC3)C2=O)cc1 (centres undefined)	-1	·	-1.0	1	-1.9	-1	1.7
COc1cc(C(=O)NCC(c2ccco2)N2CCCC2)ccc1OCc1c(C)noc1C (centres undefined)	5	99µM*	-160	3	0.8	-4	-0.9
COc1ccc(/C(C)=N/NC(=O)CNC(=O)c2ccco2)c(OC)c1	1	·	-1.1	9	2.5	11	-0.4
CCOc1ccc(-c2csc(NC(=O)C3CCCO3)n2)cc1 (centres undefined)	-20	18%	2.8	7	-4.8	2	1.8
CC(=O)Nc1cccc(Nc2nc(-c3ccccc3)nc3ccccc23)c1	4	-6%	0.0	?	-0.2	-13	4.0
Cc1ccn2cc(-c3cccc(NC(=O)c4cccs4)c3)nc2c1	5	·	5.9	50	-2.4	14	-0.4
CCOC(=O)Cn1nc(C)c(NC(=O)COc2ccc(F)cc2F)c1C	5	-3%	-1.4	1	1.1	-6	-0.7
O=C1CN(C(=O)COc2c(Cl)cccc2Cl)c2ccccc2N1	-3	-7%	0.2	14	-3.9	-8	-1.2
Clc1ccc(CN2C3=NCCCN3c3ccccc32)cc1	7	-5%	1.8	1	0.3	1	-1.9
NS(=O)(=O)c1ccc(CCNC(=O)c2ccccc2Cc2ccccc2)cc1	-2	·	2.2	-17	5.4	0	3.6
CN(c1ccc(OCC(=O)OCC(=O)Nc2ccccc2F)cc1)S(=O)(=O)c1cccs1	7	5%	-3.9	8	0.7	-21	-2.2
O=C(Nc1ccccc1Oc1ccsc1C(=O)O)c1ccccc1	-5	1%	-0.5	-1	-2.9	·	-0.3
CCOc1ccc(S(=O)(=O)N/N=C\c2ccc3c(c2)OCO3)cc1	-5	4%	1.4	5	0.3	17	-0.8

Three compounds drawn at random from the list so far, as already listed:
SMILES	Beta2AR agonist	Vif TR-FRET	RanGTP-Impb inh	Calb FLC	LANA-H2B inh	ALR H2O2 inh	HNF4A DNA FP
CCOC(=O)c1[nH]c(CO)c(C(=O)OCC)c1C	2	-2%	-0.2	3	0.3	1	0.2
CCC(C)NC(=O)CSc1nnc(-c2ccc(OC)c(OC)c2)c(-c2ccc(OC)c(OC)c2)n1 (centres undefined)	-2	-104%	-1.8	4	0.8	0	1.5
Cc1ccc(-n2c(SC3CCOC3=O)nc3ccccc3c2=O)cc1 (centres undefined)	·	·	1.5	11	-0.8	-3	·

More records
SMILES	Beta2AR agonist	Vif TR-FRET	RanGTP-Impb inh	Calb FLC	LANA-H2B inh	ALR H2O2 inh	HNF4A DNA FP
CN(CC(=O)Nc1ccc(F)cc1)C(=O)CCc1nc2sc3c(c2c(=O)[nH]1)CCCC3	-6	-30%	-1.9	-2	-2.0	28	6.4
Cc1ccc(-c2ccc(NC(=O)C3C4C=CC(C4)C3C(=O)O)cc2)o1 (centres undefined)	21	0%	30*	2	-7.7	47	2.8
CC(C)N(Cc1ccccc1)C(=O)C1CCN(c2ncnc3c2nc2n3CCCCC2)CC1	3	·	3.3	-8	0.7	-1	-1.0
Cc1ccc(SCC(=O)Nc2ccc(-c3nc4ccccc4[nH]3)cc2)cc1	107*	·	-2.7	-3	1.4	-10	8.8
C=CC[C@@H](CC(=O)N(CCO)Cc1ccccc1)C(=O)NCCOC(=O)[C@@H](CC=C)Cc1ccc(F)cc1	3	-2%	·	·	·	·	-1.9
Cc1ccc(N2C(=O)Nc3ccc(Br)cc3C2(O)C(=O)NCCCN(C)C)cc1C (centres undefined)	1	-7%	-2.9	7	-1.6	-9	0.3
CSc1ccccc1NC(=O)COc1ccc(Cl)cc1Cl	-4	·	-1.9	-3	3.0	-1	-0.1
CCC(C)OC(=O)C1=C(C)NC(=O)NC1c1ccc(F)cc1 (centres undefined)	-5	1%	0.8	-1	-0.7	-3	5.2
N#C/C(C(=O)c1ccccc1)=C1/CCCCCN1	-12	-1%	-4.6	10	-4.5	-17	-3.9

Entries of single compounds, quoted from the list.
`CSc1ccccc1NC(=O)COc1ccc(Cl)cc1Cl` is entered as Beta2AR agonist: -4; Vif TR-FRET: ·; RanGTP-Impb inh: -1.9; Calb FLC: -3; LANA-H2B inh: 3.0; ALR H2O2 inh: -1; HNF4A DNA FP: -0.1
`Cc1ccc(N2CC(C(=O)Nc3ccc4c(c3)OCO4)CC2=O)cc1` (centres undefined) is entered as Beta2AR agonist: -4; Vif TR-FRET: 6%; RanGTP-Impb inh: -3.6; Calb FLC: 1; LANA-H2B inh: -2.0; ALR H2O2 inh: -34; HNF4A DNA FP: 0.9
`COc1ccc(/C(C)=N/NC(=O)CNC(=O)c2ccco2)c(OC)c1` is entered as Beta2AR agonist: 1; Vif TR-FRET: ·; RanGTP-Impb inh: -1.1; Calb FLC: 9; LANA-H2B inh: 2.5; ALR H2O2 inh: 11; HNF4A DNA FP: -0.4

Assay outcomes from PubChem.
